liver stage – Plasmodium liver-stage growth inhibition, dose response, imaging, Malaria Box, P. yoelii, HepG2-A16-CD81EGFP (AID 602156) | P. yoelii liver stage in HepG2-A16-CD81EGFP, imaging; first-round cut-off not given here | calls after a first round at 10 µM; hits with a dose series show IC50 in µM | 4.8% of 5,700 active; in the data active means a potency from the dose series;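 further: infected cells exposed to compound for 48 hours before fixation; stained parasite area by imaging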
The depositor's hits bear a star; i = inactive. This is a subset, so the mix of outcomes need not match the whole.

SMILES | liver stage
Cc1ccc(-n2c(SCc3cc(=O)n4ccccc4n3)nc3ccsc3c2=O)cc1C | i
CCC(c1ccc(F)cc1)n1cc(C(=O)NCCCN2CCC(C)CC2)nn1 (centres undefined) | i
O=C1C2=C(Nc3ccccc3SC2c2cccs2)c2ccccc21 (centres undefined) | 0.0904µM*
CC(=O)c1c(C)oc2ccc(NS(=O)(=O)c3cccc(C(=O)O)c3)cc12 | i
Cc1ccc(C(=O)NCCN2CCCCC2)cn1 | i
CC(C)n1nnnc1CN1CCN(c2ccccc2F)CC1 | i
CCc1cccc(NC(=O)CCCn2c(=O)c3cccn3c3ccccc32)c1 | i
Cc1ccc(-c2cc3nc4c(c(=O)n3[nH]2)CCCC4)cc1 | 0.0753µM*
CC1(C)Cc2c(sc(NC(=O)CCl)c2C#N)CO1 | i
CC(=O)N1CCc2cc(NC3CCN(Cc4ccccc4)CC3)ccc21 | i
Cc1cc(N2CCC(C)CC2)nc2ccc(NC(=O)c3ccc([N+](=O)[O-])o3)cc12 | i
CCC(CO)Nc1nccnc1-c1ccccc1Oc1ccccc1 (centres undefined) | i

A different layout for part of the listing above.
> CCc1cccc(NC(=O)CCCn2c(=O)c3cccn3c3ccccc32)c1
  liver stage = i

> CC1(C)Cc2c(sc(NC(=O)CCl)c2C#N)CO1
  liver stage = i

> CC(=O)c1c(C)oc2ccc(NS(=O)(=O)c3cccc(C(=O)O)c3)cc12
  liver stage = i

> CCC(c1ccc(F)cc1)n1cc(C(=O)NCCCN2CCC(C)CC2)nn1 (centres undefined)
  liver stage = i

Next entries
SMILES | liver stage
Cc1ccc(F)cc1NC(=O)c1cc(Cl)ccc1Nc1ccccc1 | i
COc1ccc(-n2cc(-c3ccccc3)[n+]3c2SCC3)cc1 | i
CCC(c1nc2ccccc2c(=O)n1-c1ccc(F)c(Cl)c1)N(CCc1ccccc1)C(=O)COc1ccc(Cl)cc1 (centres undefined) | i
c1ccc(-c2nc(Nc3ccncc3)cc(-c3cccnc3)n2)cc1 | i
CCOC(=O)c1cnc2ccc(OC)cc2c1Nc1ccc(N2CCN(C)CC2)cc1 | i
COc1ccc(Br)cc1S(=O)(=O)N1CCCc2ccccc21 | i
CC(=O)Oc1cccc(C=c2sc3ncnn3c2=O)c1 | i
Cc1ncc(CN2CCC(C(=O)Nc3ccc(-n4cccn4)cc3)CC2)s1 | i
N=c1c2ccccc2nnn1-c1ccc(C(F)(F)F)cc1 | i
Cc1ccc(C)c(S(=O)(=O)N=C2C=C(SCC(=O)O)C(=O)c3ccccc32)c1 | i
CCOC(=O)c1cnc2ccccc2c1Nc1ccc(C(C)=O)cc1 | i
Cc1cccc(N=C2NC(=O)/C(=C\c3ccc(N(C)C)cc3)S2)c1 | i
N#Cc1ccc2c(c1)nc1c3ccc4c5c(ccc(c(=O)n21)c53)C(=O)NC4=O | i
Clc1ccc(Nc2nc3nonc3nc2Nc2ccc(Cl)c(Cl)c2)cc1Cl | i
CC(C)(C)c1ccc(C(=O)N2CCCn3cccc3C2c2ccc(C(C)(C)C)cc2)cc1 (centres undefined) | i
CCc1ccc(NC(=O)c2sc3nc4c(c(-c5ccco5)c3c2N)CCCC4)cc1 | i
Cc1[nH]nc2c1C(c1ccc([N+](=O)[O-])cc1)N(c1ccc(Br)cc1)C2=O (centres undefined) | i
CCCCCCn1c2c(c(=N)c3ccccc31)CCC2 | i
O=C(Cn1ccc(=NCc2ccccc2)cc1)c1cccc([N+](=O)[O-])c1 | i
Cc1ccc(N2C(N)=NC(N)=NC2(C)C)cc1 | 0.01µM*
Ic1nc2ccccc2s1 | i
COc1ccc(Nc2nc(NN=Cc3cc4c(cc3Br)OCO4)nc(Nc3ccc([N+](=O)[O-])cc3)n2)cc1 | i
COc1cc(OC)c(N(C)S(=O)(=O)c2cccc(C(=O)OCC(=O)Nc3ccccc3C(C)=O)c2)cc1Cl | i
c1cc(NCc2ccc3c(c2)OCO3)n2ncc(-c3ccoc3)c2n1 | i
COc1ccc2c(Cl)c(C(=O)Nc3cc(C)on3)sc2c1Cl | i
COc1cc(C(=O)Nc2cnc3ccccc3c2)ccc1-n1cnnn1 | i
CCN1CCN(c2c(C(=O)c3ccccc3)cnc3cc(OC)c(OC)cc23)CC1 | 0.367µM*
COCCNC(=S)N(Cc1ccc(F)cc1)Cc1cc2ccc(C)c(C)c2[nH]c1=O | i
COc1ccc(Nc2nc(N3CCCC3)c3ccccc3n2)cc1 | i
CCOc1ccc(S(=O)(=O)N=C2C=C(Nc3ccc(O)cc3)C(=O)c3ccccc32)cc1 | i
c1ccc(-c2cc(NCCCN3CCOCC3)nc(-c3ccccn3)n2)nc1 | i
CCC(C)(C)C1CCc2sc3ncnc(NN=Cc4c(Cl)cccc4Cl)c3c2C1 (centres undefined) | i
Cc1cccn2c(NCc3ccccc3)c(-c3ccccc3OC(=O)C(C)Cl)nc12 (centres undefined) | i
FC(F)(F)COc1nc(N2CCCCC2)nc(N(c2ccccc2)c2ccccc2)n1 | i
Nc1cc(C(=O)Nc2cccc(C3=NCCN3)c2)ccc1C(=O)Nc1cccc(C2=NCCN2)c1 | i
CC(C)(C)CC(C)(C)Nc1c(-c2ccccc2OC(=O)c2cccc(C(F)(F)F)c2)nc2ccccn12 | i
COc1cccc2c1C(=O)C1C(O)=C3C(=C(O)C1C2=O)CC(O)(C(C)=NN=C1CC(C)(C)N(O)C(C)(C)C1)CC3OC1CC(C)(N)C(O)CO1 (centres undefined) | i
CC1=C(C(=O)OC(C)C)C(c2ccc([N+](=O)[O-])cc2)C2=C(CC(C)(C)CC2=O)N1 (centres undefined) | i
CC(NC(=O)Cc1ccc(F)cc1)C(c1cccs1)N1CCOCC1 (centres undefined) | i
COc1ccc2c(c1)C(C)=CC(C)(C)N2C(=O)CSc1nnc(-c2ccc(C)cc2)o1 | i
CCOC(=O)C1=C(c2ccccc2)N=c2sc(=Cc3ccccc3O)c(=O)n2C1c1c(OC)ccc2ccccc12 (centres undefined) | i
Cc1cccc(N2CCN(c3nc4ccccc4c4nnc(C)n34)CC2)c1C | i
Cc1ccc(Nc2nc(NN=Cc3ccc(-c4ccc(Cl)c([N+](=O)[O-])c4)o3)nc(N3CCOCC3)n2)c(Br)c1 | i
Cc1ccc(C(=O)Nc2ccc(-c3nc4ccc(NC(=O)c5ccc(C)cc5)cc4[nH]3)cc2)cc1 | i
N=c1c2c(n(Cc3cccc(Cl)c3)c3c1CCC3)CCCC2 | i
O=C(NCC1CCCO1)c1cnc(N2CCN(c3ncccn3)CC2)c2ccccc12 (centres undefined) | i
O=C(NCCCN1CCCC1=O)C(=O)NCC(c1ccco1)N1CCOCC1 (centres undefined) | i
CC1=C(C(=O)OCCC(C)C)C(c2ccccc2)C(C(=O)OCCC(C)C)=C(C)N1 | i
CC1(CNCc2ccccc2O)C2CC3CC(C2)CC1C3 (centres undefined) | i
CCCCCC(=O)N1c2ccccc2NC2=C(C(=O)CC(c3ccc(OC)c(OC)c3)C2)C1c1ccc(C(F)(F)F)cc1 (centres undefined) | i
N#Cc1ccc(CNC(=S)Nc2cc(Cl)ccc2Cl)cc1 | i
CCOC(=O)C1=C(O)/C(=C/c2cc(C)n(-c3cccc(Br)c3)c2C)N=C1C | i
COc1ccc(NC(=O)C2c3ccccc3C(=O)N(C3CCCC3)C2c2cccs2)cc1Cl (centres undefined) | i
CCc1ccc(C2C(C(=O)Nc3ccccc3)=C(C)Nc3c(C(=O)Nc4ccc(C)cc4)cnn32)cc1 (centres undefined) | i
COc1ccc2c(c1)C(C)(CC#N)C(=O)N2C (centres undefined) | i
NC(=O)C1CCCN(C(=O)COC(c2ccccc2)c2cccnc2Cl)C1 (centres undefined) | i
COc1ccc(/C=C/C(=O)NC(=O)c2ccccc2O)cc1OC | i
COc1ccc(C2CC(=O)C3=C(C2)NC(C)=C(C(=O)OC(C)C)C3c2ccccc2OC)cc1OC (centres undefined) | i
COC(=O)c1c(NC(=O)c2c(-c3ccccc3)noc2C)sc2c1CCC2 | i
COc1ccc(Nc2nc(NN=Cc3cccc(F)c3)nc(Nc3ccc([N+](=O)[O-])cc3)n2)cc1 | i

Arranged by molecular weight (rising): part of the list above
SMILES | liver stage
CC1(C)Cc2c(sc(NC(=O)CCl)c2C#N)CO1 | i
Cc1cccc(N=C2NC(=O)/C(=C\c3ccc(N(C)C)cc3)S2)c1 | i
COc1ccc2c(Cl)c(C(=O)Nc3cc(C)on3)sc2c1Cl | i

(continued)
SMILES | liver stage
CCN(CC)CCNc1ccc(Nc2ccnc3cc4ccccc4cc23)cc1 | i
CC(=O)NC1=NN(C(C)=O)C(c2ccc(Br)cc2)S1 (centres undefined) | i
CCC(SC1=Nc2ccccc2C2=NC(C(C)C)C(=O)N12)C(=O)Nc1cccc(C)c1 (centres undefined) | i
c1ccc(C2=NN(c3ccccc3)C(c3ccc4c(c3)OCO4)N2c2ccc(N3CCOCC3)cc2)cc1 (centres undefined) | i
CCN1C(=Cc2ccc3cc(C)ccc3[n+]2CC)Sc2ccc(O)cc21 | i
CC[n+]1c(/C=C/C=C2\N(C)c3ccccc3C2(C)C)n(-c2ccccc2)c2ccc(Cl)cc21 | i
CC(C)CCn1c(NCc2ccccc2)nc2c1c(=O)n(CC(N)=O)c(=O)n2C | i
Cc1ccc(NC(=O)c2sc3nc4c(c(-c5cccs5)c3c2N)CCCCC4)cc1 | i
COC(=O)c1c(-c2c(Cl)cccc2Cl)noc1/C=C/Nc1ccccc1 | i
Cc1ccc(C(=O)N(CCc2ccccc2)C(C)c2nc3ccccc3c(=O)n2-c2cccc(Cl)c2C)cc1[N+](=O)[O-] (centres undefined) | i
Cc1ccc(S(=O)(=O)Nc2nc3n(n2)C(c2ccccc2)C=C(c2ccccc2)N3)cc1 (centres undefined) | i
Cc1ccn2c(NC(C)(C)CC(C)(C)C)c(-c3ccccc3OC(=O)c3ccccc3Br)nc2c1 | i
c1ccc(-c2nc3cc4nc(-c5ccccc5)[nH]c4cc3[nH]2)cc1 | i
C[C@H](Nc1cncc(-c2cccc(OC(F)(F)F)c2)n1)c1ccccc1 | i
CC(C)C[C@@H](NC(=O)[C@H](C)NC(=O)CNC(=O)[C@@H](NC=O)C(C)C)C(=O)N[C@@H](C)C(=O)N[C@@H](C(=O)N[C@H](C(=O)N[C@@H](C(=O)N[C@@H](Cc1c[nH]c2ccccc12)C(=O)N[C@H](CC(C)C)C(=O)N[C@@H](Cc1c[nH]c2ccccc12)C(=O)N[C@H](CC(C)C)C(=O)N[C@@H](Cc1c[nH]c2ccccc12)C(=O)N[C@H](CC(C)C)C(=O)N[C@@H](Cc1c[nH]c2ccccc12)C(=O)NCCO)C(C)C)C(C)C)C(C)C | i
CN(C)CCCNc1cc(-c2ccccc2)nc2ccccc12 | i
Cc1ccc(-c2nc3ncccc3o2)cc1NC(=O)COc1ccc(C(C)(C)C)cc1 | i
CCCCn1nccc1Nc1cc(C)c(C#N)c2nc3ccccc3n12 | i
COc1cc(C(=O)NC2CC2)ccc1OC1CCN(CC(c2ccccc2)c2ccccc2)CC1 | i
CCOc1ccc(C2C(C(=O)OC)=CNC=C2C(=O)OC)cc1Cl | i
COC(=O)C1=C(O)C(=Cc2cc(C)n(-c3cc(C)ccc3C)c2C)N=C1C | i
OC(CN1CCOCC1)Cn1cnc2c(SCc3ccccc3)ncnc21 (centres undefined) | i
CCC(C)NC(=O)c1cc(NC(=O)c2cccc(Cl)c2)ccc1N1CCCCC1 (centres undefined) | i
Cc1cc(Nc2cccc(C(F)(F)F)c2)nc(NCc2ccccc2)n1 | i
COc1ccc(CNC2CCN(c3cccc(NC(=O)C4CC4)c3)CC2)cc1 | i
COc1ccc(S(=O)(=O)N(C)CCCNc2ccnc3cc(Cl)ccc23)cc1 | i
Cc1onc(-c2ccccc2)c1C(=O)N1CCC(CNc2c(-c3ccc(F)cc3)nc3ccccn23)CC1 | i
CC1(C)CC(=O)C(C=Nc2nc3c(s2)CCc2c-3cnn2-c2ccccc2)=C(O)C1 | i
Cc1c(-c2ccc(Cl)cc2)[n+]2c(n1-c1ccccc1)SCCC2 | i
CCn1c(/C=C/N(C(C)=O)c2ccccc2)[n+](CC)c2ccc(Cl)cc21 | i
COc1ccc(C2CC(=O)C3=C(C2)NC(C)=C(C(=O)OC2CCCCC2)C3c2ccc([N+](=O)[O-])cc2)cc1OC (centres undefined) | i
CCOc1ccc(C=C(C#N)c2nc3ccccc3[nH]2)cc1OC | i
CCCc1ccc(OCc2nc(-c3ccc(NC(=O)c4cccs4)cc3)no2)cc1 | i
Cc1cc(C)n(N=Cc2cccc(Cl)c2)c(=O)c1C#N | i
COc1ccc(C2Nc3ccc4ccccc4c3C3=C2C(=O)CC(C)(C)C3)cc1Br (centres undefined) | i
O=C(Nc1cccnc1)c1cc(-c2cccnc2)nc2ccc(Br)cc12 | i
CCCCCN(C(=O)Nc1ccccc1OC)C(CC)c1nc2ccccc2c(=O)n1-c1ccccc1OC (centres undefined) | i
CC(C)CCNC(=O)C1CSC(c2ccc(F)cc2)N1C(=O)c1ccc(Cl)cc1Cl (centres undefined) | i
O=C(Cc1ccccc1)NCc1nnc(SCC(=O)N2N=C(c3cccs3)CC2c2ccc(F)cc2)n1Cc1ccccc1 (centres undefined) | i
COc1ccc(C2(Cc3ccccc3)NC(=O)NC2=O)cc1 (centres undefined) | i
Oc1ccccc1Nc1nc(NCc2ccccc2)c2ccccc2n1 | i
Cc1cc(Nc2cccc([N+](=O)[O-])c2)nc2cc(O)ccc12 | i

Screening data (PubChem)
